High-throughput results (PubChem BioAssay)
GIV-Gai inh: blocks GIV peptide binding to rat Galpha-i3. hit rate 0.42% among 210,000. Galpha-i3/FITC-GIV peptide fluorescence polarization, 90 min; active compounds read low; scaled: aluminum fluoride 0%, vehicle 100%. percent of control (FP), % (no concentration beside the values). P08753;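 active = replicate mean at 85% of control or lower, very high polarization wells dropped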;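 note: wells of about 15 µL received 100 nL stock; the first replicate is given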
Target sequence (P08753 whole entry, looked up): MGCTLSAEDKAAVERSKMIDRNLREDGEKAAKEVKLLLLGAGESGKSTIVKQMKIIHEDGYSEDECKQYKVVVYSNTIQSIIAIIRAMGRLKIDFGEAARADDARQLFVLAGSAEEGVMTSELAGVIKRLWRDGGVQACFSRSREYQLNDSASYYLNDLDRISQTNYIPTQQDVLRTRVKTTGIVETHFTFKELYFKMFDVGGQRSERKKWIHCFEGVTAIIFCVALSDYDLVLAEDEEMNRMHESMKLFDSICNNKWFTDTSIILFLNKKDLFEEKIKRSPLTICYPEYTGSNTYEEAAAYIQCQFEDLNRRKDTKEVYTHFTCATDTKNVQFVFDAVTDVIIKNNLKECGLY
HCMV UL50-53 inh: cytomegalovirus nuclear egress complex inhibition | inhibition, % (concentration not given with the values) | HTRF UL50-UL53 interaction, normalized percent inhibition | hit rate 0.15% among 190,000 | AID 1918969;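 active = both replicates at 50% or more, plus weaker picks with an unusually low signal ratio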;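 note: stock transfer was 100 nL into about 20 µL; 0% = negative control wells and 100% = wells with untagged competitor protein; inactives centre near -12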
Sa growth inh: blocks Staphylococcus aureus growth. relative growth, % (concentration not given with the values). S. aureus RN4220 growth, OD600, 20 h, 42 °C; active compounds read low. AID 720641. hit rate 0.53% among 170,000;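 active = growth at 42 °C up to 50% and 20 or more points under that at 30 °C, or under 10% at both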;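 note: 300 nL library stock went into each well; scaled to the means of positive and negative controls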
Sa growth inh second temp: further read-out of Sa growth inh, marked with its call; relative growth, %; measured here: growth at 30 °C;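 optical density after 20 h as mean of two plates; 100% = untreated growth and lower means inhibition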
* marks the source's active call; other numbers are inactive results; . = no result given.

The first 19 records, to show the layout:
1	COc1ccc(N2C(=O)NC(=O)/C(=C\c3ccc(OC(C)C(=O)O)cc3)C2=O)cc1 (stereo not drawn)
2	NC(=O)CSc1nc(N)c(-c2ccccc2)c(=O)[nH]1
3	CSc1n[nH]c(NC(=O)c2ccccc2Cl)c1S(=O)(=O)c1ccc(Cl)cc1
4	NS(=O)(=O)c1ccc2nc(NC(=O)Cn3[nH]c(=O)c4ccccc4c3=O)sc2c1
5	CCc1cc(SCC(=O)NCCN2C(=O)CSC2=O)n2c(nc3ccccc32)c1C#N
6	COc1ccccc1CNC(=O)CCCN1C(=O)CSc2c1c(C)nn2-c1ccccc1
7	CN1/C(=C\C(=O)Cn2nnc3ccccc3c2=O)C(C)(C)c2ccccc21
8	COc1ccc(NC(=O)CC(=O)Nc2ccc(OC)cc2)cc1
9	O=C1COc2ccc(C(=O)Nc3cccc(F)c3)cc2N1
10	CCC(=O)OCC(=O)Nc1ccc2c(c1)OCO2
11	COC(=O)c1ccc(Cl)cc1NC(=O)N(C)CCc1c(C)nn(C)c1C
12	CNc1ccc(S(=O)(=O)c2ccc(NC)cc2)cc1

screen / no.	1	2	3	4	5	6	7	8	9	10	11	12
GIV-Gai inh	101	103	107	.	.	104	.	.	98	.	113	99
HCMV UL50-53 inh	-1	-19	-18	-17	-40	.	-27	1	-11	0	.	.
Sa growth inh	.	109	95	69	87	104	85	88	.	98	113	92
Sa growth inh second temp	.	74	91	90	82	89	90	85	.	101	96	63

13	C/C(Cc1nc2ccccc2[nH]1)=N/Nc1ccccc1
14	O=C1CCCN1c1ccc(S(=O)(=O)Nc2ccc(-c3cc4cc(Cl)ccc4[nH]3)cc2)cc1
15	O=C(CCCN1C(=O)/C(=C\c2ccco2)SC1=S)Nc1cccnc1
16	CC(C)N(C(=O)CSc1nc2ccc(Cl)cc2[nH]1)c1ccccc1
17	CCc1ccc(N2CCn3c2nc2c3c(=O)n(Cc3cccc(C)c3)c(=O)n2C)cc1
18	CCN(Cc1cc(=O)oc2ccc(OC)cc12)c1ccccc1
19	C=C1/C(=C/C=C2/CCC[C@]3(C)[C@@H]([C@H](C)CCCC(C)C)CC[C@@H]23)C[C@@H](O)C[C@@H]1O

screen / no.	13	14	15	16	17	18	19
GIV-Gai inh	108	102	116	106	100	110	102
HCMV UL50-53 inh	-14	-17	-119	17	.	0	-31
Sa growth inh	114	.	80	107	122	87	92
Sa growth inh second temp	54	.	79	78	96	84	101

The list itself, from the start:
1	COc1ccc(N2C(=O)NC(=O)/C(=C\c3ccc(OC(C)C(=O)O)cc3)C2=O)cc1 (stereo not drawn)
2	NC(=O)CSc1nc(N)c(-c2ccccc2)c(=O)[nH]1
3	CSc1n[nH]c(NC(=O)c2ccccc2Cl)c1S(=O)(=O)c1ccc(Cl)cc1
4	NS(=O)(=O)c1ccc2nc(NC(=O)Cn3[nH]c(=O)c4ccccc4c3=O)sc2c1
5	CCc1cc(SCC(=O)NCCN2C(=O)CSC2=O)n2c(nc3ccccc32)c1C#N
6	COc1ccccc1CNC(=O)CCCN1C(=O)CSc2c1c(C)nn2-c1ccccc1
7	CN1/C(=C\C(=O)Cn2nnc3ccccc3c2=O)C(C)(C)c2ccccc21
8	COc1ccc(NC(=O)CC(=O)Nc2ccc(OC)cc2)cc1
9	O=C1COc2ccc(C(=O)Nc3cccc(F)c3)cc2N1
10	CCC(=O)OCC(=O)Nc1ccc2c(c1)OCO2

screen / no.	1	2	3	4	5	6	7	8	9	10
GIV-Gai inh	101	103	107	.	.	104	.	.	98	.
HCMV UL50-53 inh	-1	-19	-18	-17	-40	.	-27	1	-11	0
Sa growth inh	.	109	95	69	87	104	85	88	.	98
Sa growth inh second temp	.	74	91	90	82	89	90	85	.	101

11	COC(=O)c1ccc(Cl)cc1NC(=O)N(C)CCc1c(C)nn(C)c1C
12	CNc1ccc(S(=O)(=O)c2ccc(NC)cc2)cc1
13	C/C(Cc1nc2ccccc2[nH]1)=N/Nc1ccccc1
14	O=C1CCCN1c1ccc(S(=O)(=O)Nc2ccc(-c3cc4cc(Cl)ccc4[nH]3)cc2)cc1
15	O=C(CCCN1C(=O)/C(=C\c2ccco2)SC1=S)Nc1cccnc1
16	CC(C)N(C(=O)CSc1nc2ccc(Cl)cc2[nH]1)c1ccccc1
17	CCc1ccc(N2CCn3c2nc2c3c(=O)n(Cc3cccc(C)c3)c(=O)n2C)cc1
18	CCN(Cc1cc(=O)oc2ccc(OC)cc12)c1ccccc1
19	C=C1/C(=C/C=C2/CCC[C@]3(C)[C@@H]([C@H](C)CCCC(C)C)CC[C@@H]23)C[C@@H](O)C[C@@H]1O
20	COC(=O)CCc1sc(Nc2ccccn2)nc1-c1ccc(OC)cc1

screen / no.	11	12	13	14	15	16	17	18	19	20
GIV-Gai inh	113	99	108	102	116	106	100	110	102	97
HCMV UL50-53 inh	.	.	-14	-17	-119	17	.	0	-31	-16
Sa growth inh	113	92	114	.	80	107	122	87	92	.
Sa growth inh second temp	96	63	54	.	79	78	96	84	101	.

21	NC(=O)c1ccc[n+](CC(=O)c2ccccc2)c1
22	CCOC(=O)CC1C(=O)NCCN1Cc1cccc2ccccc12 (stereo not drawn)
23	O=c1cc(-c2ccccc2)nc(SCCO)[nH]1
24	Cc1ccc(C(CC(=O)O)C2CCOC(C)(C)C2)cc1 (stereo not drawn)
25	CCc1cccc(NC(=O)C(NS(=O)(=O)c2ccc3nc(C)sc3c2)C(C)C)c1 (stereo not drawn)
26	CCN1CCc2c(OCC(=O)Nc3ccc(OC)cc3)cccc2C1=O
27	CCN1CCCC1CNC(=O)c1ccc(-n2ccc3ccccc32)s1 (stereo not drawn)
28	CCCN1CCN(C(=O)c2sc3nc(C)nc(N4CCN(c5ccccn5)CC4)c3c2C)CC1
29	COc1cc(/C=N/NC(=O)c2ccccc2-n2cccc2)ccc1O
30	Cc1cc(C)cc(N2C(=O)N(CC(=O)NC(C)C)C3CS(=O)(=O)CC32)c1 (stereo not drawn)

screen / no.	21	22	23	24	25	26	27	28	29	30
GIV-Gai inh	101	100	99	109	104	102	107	107	.	105
HCMV UL50-53 inh	.	-26	-23	-1	-16	-3	-10	11	-47	-2
Sa growth inh	92	104	92	98	105	100	86	.	85	80
Sa growth inh second temp	92	85	81	78	82	91	57	.	94	90

31	COc1ccc(C2=NN(C(=O)CCCC(=O)O)C(c3ccccc3Cl)C2)cc1 (stereo not drawn)
32	COC(=O)CC1C(=O)NCCN1C(=O)CSc1nc2ccccc2c(=O)n1-c1ccc(C)cc1 (stereo not drawn)
33	Clc1nc(-c2ccccc2)nc2ccccc12
34	CCc1ccc(OCc2nc(C)c(C(=O)Nc3nnc(C4CC4)s3)s2)cc1
35	CN(C)c1ccc(CNC(=O)CN2C(=O)c3cccnc3Oc3ccc(Cl)cc32)cc1
36	COC(C(=O)NCc1ccccc1C)c1ccccc1 (stereo not drawn)
37	Clc1ccc(NCC2CCCCC2)nn1
38	CCN(CC(O)c1cccc(O)c1)C(=O)C12CC3CC(CC(C3)C1)C2 (stereo not drawn)
39	COCCCNC(=O)C1CCC(CNS(=O)(=O)c2ccc(OC)cc2)CC1 (stereo not drawn)
40	O=C(O)c1cnn(-c2ccccc2)c1-n1cccc1

screen / no.	31	32	33	34	35	36	37	38	39	40
GIV-Gai inh	101	.	.	101	109	99	108	.	102	102
HCMV UL50-53 inh	-15	8	-14	-20	.	-3	1	20	.	4
Sa growth inh	.	105	89	.	98	100	89	103	110	105
Sa growth inh second temp	.	97	83	.	101	97	89	102	90	103

41	CCN(CC)C(=O)c1ccc2c(c1)N(Cc1ccc(F)cc1)C(=O)c1ccccc1S2=O (stereo not drawn)
42	CCC(CC)c1nnc(NC(=O)C2=NNC(=O)CC2)s1
43	CN(C)CCOC(=O)C1(c2ccccc2)CCOCC1
44	O=C(NCc1ccccc1)N1CCN(C(c2ccc(F)cc2)c2ccc(F)cc2)CC1
45	O=C(CSc1nnc(-c2ccccc2F)n1Cc1ccccc1)N1CCNC1=O
46	CCCCS(=O)(=O)c1sc2nc3c(cc2c1N)CCCC3
47	CCOc1ccc2cc(-c3nc4ccccc4s3)c(=O)oc2c1
48	CCOC(=O)c1c(C)oc2ncnc(N3CCN(c4ccc(C)cc4C)CC3)c12
49	CCCCOc1ccc(/C=N/n2cnnc2)cc1
50	CCOc1ccc2nc(N3CCCC(C(=O)NCCc4ccc(OCC)c(OCC)c4)C3)sc2c1 (stereo not drawn)

screen / no.	41	42	43	44	45	46	47	48	49	50
GIV-Gai inh	100	.	100	95	.	101	107	102	.	102
HCMV UL50-53 inh	0	-24	-14	.	-27	-21	-16	-26	-18	-16
Sa growth inh	97	95	97	110	106	100	.	107	80	106
Sa growth inh second temp	98	94	91	91	98	104	.	82	91	84

51	CCC(CC)C(=O)NCCc1cc2ccc(C)cc2[nH]c1=O
52	Cc1cc(OCC(=O)Nc2cc(-c3nc4ccccc4[nH]3)ccc2C)ccc1Cl
53	COC(=O)c1cc(S(=O)(=O)N2CCCC2C(=O)Nc2ccc(Br)cc2F)cn1C (stereo not drawn)
54	c1ccc(-c2ccc3c(n2)CCc2ccccc2-3)cc1
55	COc1cc2nc(CSc3nnc(C4CC4)n3C3CC3)[nH]c(=O)c2cc1OC
56	COc1ccc(NC(=O)c2ccco2)c(NC(=O)Cc2cccs2)c1
57	COc1ccc(NC(C)=O)cc1
58	O=C1CCc2cc(S(=O)(=O)Nc3ccccc3)cc3c2N1CC3
59	CC(C)(C)C(=O)Cn1c(=O)n(CC2CCC(C(=O)NCc3ccccc3)CC2)c(=O)c2ccccc21 (stereo not drawn)
60	Cc1nc(-c2ccccc2)cc(N2CCCC2)n1

screen / no.	51	52	53	54	55	56	57	58	59	60
GIV-Gai inh	103	111	102	105	.	104	.	99	103	103
HCMV UL50-53 inh	-5	14	8	-31	-38	-5	-14	20	.	-7
Sa growth inh	117	108	.	114	99	102	93	.	89	78
Sa growth inh second temp	85	104	.	85	85	98	91	.	82	86

61	CC(C)(C)C(=O)COC(=O)Cn1nnc(N2CCCC2)n1
62	CCOCCOC(=O)C(C)Oc1ccc2c(=O)c(Oc3cc(C)cc(C)c3)coc2c1 (stereo not drawn)
63	Cc1nnc(NCCc2ccccc2)c2c1nnn2Cc1ccc(F)cc1
64	CCn1c(COc2ccccc2OC)nc2ccccc21
65	CC(C)C1=CC2=C(CC(C)(C)CC2=O)OC1N(C)C (stereo not drawn)
66	CCOc1ccc(Nc2c(S(=O)(=O)c3ccc(Cl)cc3)cnc3ccc(OC)cc23)cc1
67	CCOC(=O)c1c(C)[nH]c(C)c1S(=O)(=O)N(CC)c1ccc(OC)cc1
68	COc1ccccc1CCNC(=O)CCCn1c(=O)c2cccn2c2cccnc21
69	CCOc1ccc(N(Cc2nc3nc(C)cc(=O)n3[nH]2)S(=O)(=O)c2ccccc2)cc1
70	CCn1c(C(=O)O)c(CNCc2cccc(Cl)c2)c2ccc(C)cc21

screen / no.	61	62	63	64	65	66	67	68	69	70
GIV-Gai inh	106	100	105	103	.	101	103	104	103	118
HCMV UL50-53 inh	9	-15	-8	-5	3	-22	-30	-40	-18	.
Sa growth inh	92	.	101	.	98	122	87	94	.	120
Sa growth inh second temp	89	.	97	.	94	94	76	85	.	89

71	CSC(=NCc1ccc(-c2cccs2)s1)NC#N
72	Cc1cccc(NC(=O)c2nc(S(C)(=O)=O)ncc2Cl)c1
73	CCN(Cc1ccccc1)C(=O)c1cn(-c2cccc(OC)c2)c(=O)c2ccccc12
74	Cc1ccc(-c2nnc(SCC(=O)N3CC(C)CC(C)C3)o2)cc1 (stereo not drawn)
75	CCN(CC)C(=O)C1=CC(c2ccc(F)cc2)=NS(=O)(=O)N1C
76	Cc1cc(C)c(NC(=O)CSc2n[nH]c(-c3ccccc3Cl)n2)c(C)c1
77	COc1cc(/C=C2\N=C(c3cccc(Br)c3)OC2=O)ccc1OC(C)=O
78	CSC(SC)=C(C#N)c1nc2ccccc2s1
79	Cc1cc(NC(=O)Cc2cccc3ccccc23)no1

screen / no.	71	72	73	74	75	76	77	78	79
GIV-Gai inh	105	102	108	104	103	103	107	215	.
HCMV UL50-53 inh	1	.	.	.	.	.	-29	14	4
Sa growth inh	93	1.0*	99	87	99	93	.	56	90
Sa growth inh second temp	81	3.2*	94	44	86	98	.	58	87
